Compound activity as filed in PubChem.
Vaccinia mCherry – qHTS for Stage-Specific Inhibitors of Vaccinia Orthopoxvirus: mCherry Reporter Primary qHTS; AID 720579, 2013; 310,000 compounds, 0.63% hits; Vaccinia virus mCherry reporter infection, fluorescence; about a quarter of the inactives have no number; Potency, µM (highest dose often 36.5 µM), for inactives: top-dose activity change, negative = inhibition, most hits filed as inhibitors; active = well fitted inhibition curve with a large enough effect; inconclusive = small, poorly fitted or top-dose-only effect; inactive = no such curve, though single readings can be large or run the other way; tested in A549 cells; further: nearly all actives have a fitted effect of over 35% in size; inactives centre near -10
Vaccinia Venus – qHTS for Stage-Specific Inhibitors of Vaccinia Orthopoxvirus: Venus Reporter Primary qHTS. Vaccinia virus Venus reporter expression, fluorescence. 330,000 compounds, 0.46% hits. AID 720580, 2013. Potency, µM (top dose mostly 36.5 µM), without a hit: at the highest dose activity change, negative = inhibition, most hits filed as inhibitors; active means well fitted inhibition curve with a large enough effect; inconclusive means small, poorly fitted or top-dose-only effect; inactive means no such curve, though single readings can be large or run the other way; tested in A549 cells; further: nearly all actives have a fitted effect of over 30% in size; inactives centre near -10
* marks the source's active call; other numbers are inactive results; i = inactive; ? = inconclusive; nt = no result given; & = joins results of further samples; [ ] = dose if it differs, or a comment. On the % scale 0 is the no-effect control and ±100 the full control effect; potency means the concentration at half of the fitted maximal effect.

molecule,Vaccinia mCherry,Vaccinia Venus
COc1ccc(C(CNS(=O)(=O)c2ccc(NC(C)=O)c(OC)c2)N2CCCCC2)cc1 (centres undefined),-4%,-16%
COc1ccc(OC)c(NC(=O)CN(C)CCOc2ccc(Br)cc2)c1,-25%,-15%
Cc1cc(C)c(NC(=O)CSc2nc3nccnc3c(=O)n2CCc2c[nH]c3ccccc23)c(C)c1,-14%,-8%
Cc1nnc(NC(=O)c2ccc(-c3ccc(Cl)cc3)o2)s1,-12%,-8%
Cc1cccc(NC(=O)N2CCC3(CC2)Oc2ccccc2C(=O)N3Cc2ccccc2F)c1C,-14%,-15%
O=C(NCc1ccc2c(c1)CCN2C(=O)c1ccncc1)c1ccccc1F,-2%,-4%
O=C(Nc1ccc(Br)c2cccnc12)c1cccc2ccccc12,-6%,-11%
Cc1cc(C)n(-c2nc(SCCN(C)C)c3c4c(sc3n2)CCCC4)n1,?,?
CC(C)n1cnc2c(NCc3ccccc3)nc(NCCO)nc21,-2%,-16%
S=c1[nH]nc(CN2CCCC2)n1Cc1ccccc1,i,1%
Sc1nnc(-c2ccc(Cl)cc2)n1Cc1ccccc1,-13%,-10%
Cc1ccc(Cn2ccn(Cc3ccccc3F)c(=O)c2=O)cc1,2%,5%

2 records drawn at random from the list so far, as already listed:
molecule,Vaccinia mCherry,Vaccinia Venus
Cc1cc(C)c(NC(=O)CSc2nc3nccnc3c(=O)n2CCc2c[nH]c3ccccc23)c(C)c1,-14%,-8%
COc1ccc(C(CNS(=O)(=O)c2ccc(NC(C)=O)c(OC)c2)N2CCCCC2)cc1 (centres undefined),-4%,-16%

Next part:
molecule,Vaccinia mCherry,Vaccinia Venus
Cc1ccc2c(c1)N(C(=O)CCC(=O)NCc1cccc(Cl)c1)CC(C)O2 (centres undefined),-16%,-15%
O=C(Cc1ccc(S(=O)(=O)N2CCCC2)s1)NC1CCCCCC1,nt,-17%
CCOc1ccc(-c2cc(-c3nc(-c4ccc(C)cc4)no3)[nH]n2)cc1,-20%,-9%
CCCCn1c(N)c(C(=O)NCCN2CCOCC2)c2nc3ccccc3nc21,nt,?
O=C(NNC(=O)c1cccc(-n2cccc2)c1)c1ccc(F)cc1,-11%,-9%
Cn1c2ccc(F)cc2c2ncn(Cc3ccccn3)c(=O)c21,-8%,-24%
O=C(CSc1nnc(-c2cccs2)o1)Oc1ccccc1Cl,-7%,-14%
Cc1ccc(C(=O)OCC(=O)Nc2sc3c(c2C#N)CCC3)cc1,-12%,0%
Cc1nnc(SCC(=O)NC(=O)NC2CCCC2)n1N,-16%[1.46 µM],-16%
O=C(NC1CC1)c1ccc2snnc2c1,i,-8%
CCOC(=O)/C(=N/Nc1ccc(Cl)cc1)Sc1nnnn1-c1ccc(C)cc1,i,?
FC(F)(F)Oc1ccc(Nc2nc3ccccc3o2)cc1,-8%,-2%
Cc1ccc(CCNC(c2ccc(F)cc2)c2nnc(-c3ccccc3Cl)o2)cc1 (centres undefined),-7%,-5%
COc1ccc(CCNC(=O)C(=O)NCC2OCCN2S(=O)(=O)c2ccccc2)cc1 (centres undefined),-23%,-12%
CCOc1cc(NC(=S)NCC2CCCO2)c(OCC)cc1NC(=O)c1ccc(C)cc1 (centres undefined),-12%,3%
CC1([N+](=O)[O-])COP(=O)(NC2CC2)OC1 (centres undefined),-20%,-6%
COC(=O)/C(=C\c1ccc2c(c1)c1ccccc1n2C)NC(=O)c1ccccc1,-13%,-12%
COc1cc(-c2oc3cc(O)ccc3c(=O)c2O)ccc1O,?,0%
N#CC(C#N)=Cc1ccc(-c2ccc(S(=O)(=O)N=C(N)N)cc2)o1,-8%,11%
CC1CCN(C(=S)NC(=O)C2CCCCC2)CC1,nt,-2%
CC1(c2nnc(-c3ccc(F)cc3)o2)CC(c2ccc(Cl)cc2)=NO1 (centres undefined),-12%,5%
CCC(C)C(=O)OCC1(c2ccc(C)cc2OC(=O)C(C)C)CO1 (centres undefined),3%,1%
COc1ccccc1CNC(=O)COC(=O)c1ccncc1,-12%,1%
O=C(Nc1ccc(Cl)cc1F)c1cc(S(=O)(=O)NC2CCCCCC2)ccc1F,-16%,-5%
CC(c1nc2ccccc2[nH]1)n1c(=O)c(-c2cccnc2)nc2ccccc21 (centres undefined),-11%,-1%
CC1c2nc3ccccc3n2C(CC(=O)NCCCN2CCOCC2)C(=O)N1Cc1ccccc1 (centres undefined),-12%,-9%
Cn1c(CCc2ccccc2)n[nH]c1=S,i,-17%
CC(=O)n1nc(-c2ccccc2)nc1NCc1ccc(N(C)C)cc1,-18%,-10%
CC(C)(C)C(=O)Nc1ccc2c(c1)-c1cc(NC(=O)C(C)(C)C)ccc1C2,i,-14%
CC(C)(Cc1nc2ccccc2[nH]1)c1nc2ccccc2[nH]1,6%,5%
COc1ccccc1C1CC(=O)n2c(nc(-c3ccccc3)c2-c2ccccc2)S1 (centres undefined),i,-9%
Cc1nc(-c2cccc(S(=O)(=O)N3CCC(C)CC3)c2)cs1,nt,-28%
CCOC(=O)[C@@H]1[C@H]2COc3cc(OC)ccc3[C@@H]2N2C(=O)N(c3ccc(Br)cc3)C(=O)[C@@]12C,-11%,-23%
CS(=O)(=O)N1CCN(c2ccccc2NC(=O)c2ccc(Br)o2)CC1,?,?
CCS(=O)(=O)N1CC(=O)N(c2cc(Cl)ccc2C)C(C)(C(=O)NC2CCCCCC2)C1 (centres undefined),-12%,-8%
COC(=O)C(C)(C)ONC(=O)Nc1ccccc1Cl,i,-7%

More entries.
Structure,Vaccinia mCherry,Vaccinia Venus
COc1ccc(S(=O)(=O)c2c(O)c3ccc(C(=O)Nc4ccccc4)cc3[nH]c2=O)cc1,-6%[7.34 µM],4%[7.34 µM]
COC(=O)CCSCC(=O)N1N=C(c2ccc(Br)cc2)CC1c1cccc(OC)c1OC (centres undefined),-19%,-18%
O=C(CSc1ncccn1)NCc1ccccc1Cl,-13%,-5%
COc1ccccc1CNC(=O)CC1N=C2c3ccccc3N=C(SCC(=O)Nc3ccc(F)cc3)N2C1=O (centres undefined),-7%,-4%
COc1cccc(NC(=O)COC(=O)CCn2c(C)csc2=O)c1,-2%,-20%
O=C(C[n+]1cccc2cccc(O)c21)c1ccccc1,-1%,21%
COc1cccc(C(=O)OCn2nnc3ccccc3c2=O)c1,i,-4%
CC(N=C1NS(=O)(=O)c2ccccc21)C(=O)N1CCc2ccccc2C1 (centres undefined),i,-2%
COc1ccc(C(=O)CC2(CC(=O)c3ccc(OC)cc3)C(=O)N(C)C(=O)N(C)C2=O)cc1,-11%,0%
Cc1onc(-c2c(Cl)cccc2Cl)c1C(=O)N1CCOCC1,-26%,-26%
O=C(Nc1ccccc1)C1=C[C@H](c2ccc(C(F)(F)F)cc2)C[C@H](OCc2ccc(CO)cc2)O1,-6%,-24%
CCCOc1ccc(C(=O)N(Cc2cccs2)c2ccc(C)cc2)cc1,-7%,3%
COc1ccc(OC)c(NC(=O)C(=O)NNC(=O)c2cccs2)c1,-1%,0%
NC(c1ccc(F)c(F)c1)c1nc(-c2cncnc2)cs1 (centres undefined),2%,-1%
CCCNS(=O)(=O)c1ccc(NC(=O)Cc2cccs2)cc1,73%[activator],68%[activator]
O=C(CSc1nnc(-c2cccc(S(=O)(=O)N3CCCC3)c2)n1-c1ccccc1)Nc1ccc(C(=O)O)cc1,i,-6%
N#CC1c2ccccc2C=CN1C(=O)N(c1ccccc1)c1ccccc1 (centres undefined),?,-29%
CC1(C(=O)Nc2ccc3c(c2)OCO3)CCN1C(=O)Cc1cccc2ccccc12 (centres undefined),24%,-10%
Cc1cc(C(C)(C)C)cc(C)c1CCNC(=O)c1c(C)noc1C,-12%,-28%
CC(=O)OC(CC(=O)O)C[N+](C)(C)C (centres undefined),-12%,-13%
Oc1c(Cl)cc(Cl)cc1CNn1cnnc1,-5%,-6%
CCOc1ccc(Cl)cc1S(=O)(=O)NCc1ccccn1,-4%,-4%
NC(=O)c1ccc(NC(=O)COC(=O)c2ccc3ccccc3n2)cc1,-1%,1%
O=C(O)c1cc(=O)c2ccc(Cl)cc2[nH]1,i,0%
COC(=O)c1cccc(S(=O)(=O)N2CCC(NC(=O)NC34CC5CC(CC(C5)C3)C4)CC2)c1,-1%,-8%
COc1cc(Cl)c(C)cc1NC(=O)c1cccc(OC)c1OC,i,-21%
CC(NNC(=S)N1CCN(c2ccccn2)CC1)c1nccc2ccccc12 (centres undefined),?,?
O=C(NCC1CCCCC1)c1cc(S(=O)(=O)N2CCCCC2)ccc1N1CCOCC1,-2%,0%
Cc1cc(NC(=O)Nc2cccc(Cl)c2)no1,-4%,-16%
Cc1cc(C)c2c3c(c(-c4ccccc4)n2n1)c(=O)n(C)c(=O)n3C,21%,1%

13 compounds from above, arranged by length of the SMILES, descending.
Structure,Vaccinia mCherry,Vaccinia Venus
O=C(Nc1ccccc1)C1=C[C@H](c2ccc(C(F)(F)F)cc2)C[C@H](OCc2ccc(CO)cc2)O1,-6%,-24%
COC(=O)c1cccc(S(=O)(=O)N2CCC(NC(=O)NC34CC5CC(CC(C5)C3)C4)CC2)c1,-1%,-8%
COc1ccc(S(=O)(=O)c2c(O)c3ccc(C(=O)Nc4ccccc4)cc3[nH]c2=O)cc1,-6%[7.34 µM],4%[7.34 µM]
COC(=O)CCSCC(=O)N1N=C(c2ccc(Br)cc2)CC1c1cccc(OC)c1OC (centres undefined),-19%,-18%
CC1(C(=O)Nc2ccc3c(c2)OCO3)CCN1C(=O)Cc1cccc2ccccc12 (centres undefined),24%,-10%
NC(=O)c1ccc(NC(=O)COC(=O)c2ccc3ccccc3n2)cc1,-1%,1%
COc1ccc(OC)c(NC(=O)C(=O)NNC(=O)c2cccs2)c1,-1%,0%
COc1cc(Cl)c(C)cc1NC(=O)c1cccc(OC)c1OC,i,-21%
COc1cccc(C(=O)OCn2nnc3ccccc3c2=O)c1,i,-4%
O=C(C[n+]1cccc2cccc(O)c21)c1ccccc1,-1%,21%
Cc1cc(NC(=O)Nc2cccc(Cl)c2)no1,-4%,-16%
O=C(CSc1ncccn1)NCc1ccccc1Cl,-13%,-5%
Oc1c(Cl)cc(Cl)cc1CNn1cnnc1,-5%,-6%

New compounds follow.
Structure,Vaccinia mCherry,Vaccinia Venus
CC(C)(C)c1cc(CCC(=O)NCC2CCCO2)cc(C(C)(C)C)c1O (centres undefined),4µM*,-20%
CC(=O)N1c2ccc(S(=O)(=O)N3CCCCCC3)cc2CC1C(=O)NCc1ccccc1 (centres undefined),-12%,-4%
CC(C)(C)OC(=O)N(Cc1ccccc1)Cc1ccc(OCc2cccc(NC(=O)c3ccccc3)c2)cc1,15%,2%
COc1ccc(C(C)=O)cc1COc1ccccc1[N+](=O)[O-],i,-13%
C=C(C)CN(CC)C(=O)CSc1nc2ncc(Cl)cc2[nH]1,-14%,-7%
COc1ccc(Cl)cc1NC(=O)C1CCCN(c2ncnc3c2nc2n3CCCCC2)C1 (centres undefined),-8%,-9%
CCOC(=O)C1CCCN(C(=O)c2cc3c(=O)[nH]c4ccc(C)cc4c3s2)C1 (centres undefined),-14%,-12%
O=C1NC(=O)N(Cc2ccc(F)cc2)C(=O)/C1=C\C=C\c1ccco1,-11%,38%[activator]
Cc1ccc(CCNS(=O)(=O)c2cc(-c3cc(C)no3)ccc2C)cc1,-14%,-14%
COc1ccc(S[C@@H](CCN2CC[C@H](C)CCC2=O)c2ccccc2)cc1,-4%,-17%&-21%
CNC(=O)c1sc(Nc2ccc(OCc3ccccc3)cc2)nc1C,?,-4%
Cn1cc(CCC(=O)NCc2cccc(Cl)c2)c2ccccc21,i,-17%
C=C(C)C1CC=C(C)/C(=N\NC(=O)CNc2cccc3ccccc23)C1 (centres undefined),-16%,-14%
NC(=O)COc1ccccc1C(=O)NC12CC3CC(CC(C3)C1)C2,i,-5%
O=C(CN1C(=O)c2ccccc2C1=O)c1ccccc1,nt,11%
CCN(C(=O)CSc1nc2ccccc2nc1Cc1ccccc1OC)c1ccccc1,-16%,-6%
CCc1ccccc1NC(=O)C1=CN2CCS(=O)(=O)N=C2C=C1,i,-6%
COc1cccc(C(C)NC(=O)Cc2cccs2)c1 (centres undefined),-17%,-12%
COc1ccc(S(=O)(=O)N2CCOCC2)cc1NC(=O)CSc1ncccn1,-16%,-7%
CCOC(=O)c1[nH]c2ccc(Br)cc2c1NC(=O)CCN1CCCC(C)(C)C1,-6%,-13%
COc1ccc(NC(=O)Cn2nnc(C(N)=O)c2N)c(OC)c1,i,-16%
CCOc1ccccc1N(C)C(=O)Cn1cnc2sc(C)c(S(=O)(=O)N3CCC(C)CC3)c2c1=O,-12%,-9%
CC1(c2ccc(Cl)cc2)CC(C)(C)N(C(=O)c2cccc(F)c2)c2ccccc21 (centres undefined),-14%,-14%
CS(=O)(=O)c1ccccc1C(=O)N1CCN(S(=O)(=O)c2ccc(C3CCCCC3)cc2)CC1,?,?
O=C(NCC1CC1)c1ccc2c3n(nc2c1)-c1ccc(Cl)cc1CO3,-5%,-26%
CC1CCCN(C(=S)Nc2ccc(S(=O)(=O)N3CCCCC3)cc2)C1 (centres undefined),i,-19%
NC(=S)N/N=C/c1ccc(-c2cc(Cl)cc(Cl)c2)o1,nt,?
O=C(C[C@@H]1C/C=C\C[C@H](NC(=O)OCC2c3ccccc3-c3ccccc32)C(=O)OC[C@@H]2CCCN2C1=O)N[C@@H](CO)Cc1ccccc1,i,-6%
